From PubChem BioAssay
Marburg entry inh – blocks Marburg virus binding to or entry into cells; Marburg virus pseudotyped entry inhibition, cell reporter; control for the full effect not named in the record; about a third of the inactives were read at about 46 µM; Potency, µM (top dose mostly 37.8 µM), without a hit: at the highest dose activity change, negative = inhibition, actives largely listed as inhibitors; actives 1.8% (n = 300,000); active = well fitted inhibition curve with a large enough effect; inconclusive = small, poorly fitted or top-dose-only effect, or effect the other way; inactive = flat fitted curve, though single readings scatter; tested in HEK293 cells; about a fifth of its hits are not listed in these tables; note: % is set by controls: 0 for no effect and ±100 for the full control effect; luciferase read-out
Lassa entry inh – Lassa virus entry inhibition. Lassa virus pseudotype entry inhibition, cell reporter; control for the full effect not named in the record. Potency, µM (doses to about 37.9 µM), for the others: top-dose activity change, negative = inhibition, hits mostly inhibitors. actives 1.2% (n = 300,000); active means well fitted inhibition curve with a large enough effect; inconclusive means small, poorly fitted or top-dose-only effect, or effect the other way; inactive means flat fitted curve, though single readings scatter; tested in HEK293 cells; note: % is set by controls: 0 for no effect and ±100 for the full control effect; nearly all actives have a fitted effect of over 50% in size; luciferase read-out
RE007 growth inh – less growth of the S. pombe RE007 Vpr strain; S. pombe RE007 Vpr strain, BacTiter-Glo ATP luminescence, 24 h; control for the full effect not named in the record; AID 651644; actives 0.21% (n = 360,000); Potency, µM (highest dose often 92.2 µM), without a hit: at the highest dose activity change, negative = less growth; active = well fitted falling curve with a large enough effect; inconclusive = small, poorly fitted or top-dose-only effect; inactive = no such curve, though single readings can be large or run the other way;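 note: % is set by controls: 0 for no effect and ±100 for the full control effect; nearly all actives have a fitted effect of over 50% in size; the assay follows cell death caused by Vpr and the record does not say whether a fall means rescue or toxicity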
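Fission yeast strain RE007, carrying one chromosomally integrated HIV-1 vpr copy, was seeded at OD 0.01 in PMG+AL medium with 23 nL pinned compound. After 24 h at 30 °C and 99% humidity, viability was read by BacTiter-Glo luminescence.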
Cruzain inh Det – inhibitors of Trypanosoma cruzi cruzain with detergent | P25779 | Potency, µM, inactives show max response, negative = inhibition, usual class: inhibitors | purified cruzain, Z-FR-AMC fluorescence, 0.01% Triton | actives 0.43% (n = 200,000);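 note: plate controls were neutral wells for no effect and buffer without enzyme for full effect; nearly all actives have a fitted effect of over 40% in size; top concentration of the series not given in the record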
Target sequence (P25779 123-467 limits assumed): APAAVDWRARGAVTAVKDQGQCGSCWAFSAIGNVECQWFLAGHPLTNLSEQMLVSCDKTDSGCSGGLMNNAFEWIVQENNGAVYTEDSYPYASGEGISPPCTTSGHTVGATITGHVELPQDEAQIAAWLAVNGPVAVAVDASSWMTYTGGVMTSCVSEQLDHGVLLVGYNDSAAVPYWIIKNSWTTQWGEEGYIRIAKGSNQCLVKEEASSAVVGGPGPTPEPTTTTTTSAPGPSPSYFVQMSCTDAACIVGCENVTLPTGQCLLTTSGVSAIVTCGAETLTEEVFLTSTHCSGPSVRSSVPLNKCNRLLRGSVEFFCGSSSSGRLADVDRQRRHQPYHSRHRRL
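Z-FR-AMC hydrolysis (2 uM substrate) by cruzain (1.5 nM) monitored kinetically at ex 360/em 450 nm after 15 min room-temperature compound exposure; 0.01% Triton X-100, pH 5.5, 5 mM DTT.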
Cruzain inh noDet – blocks cruzain activity in detergent-free assay | Potency, µM, inactives show max response, negative = inhibition, hits mostly inhibitors | purified cruzain, Z-FR-AMC fluorescence, no detergent | actives 2.3% (n = 200,000) | P25779;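 note: plate controls were enzyme without inhibitor for no effect and buffer without enzyme for full effect; nearly all actives have a fitted effect of over 40% in size; top concentration of the series not given in the record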
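Detergent-free condition (0.00005% Triton X-100) in acetate buffer pH 5.5 with DTT. 1.5 nM enzyme and compound were pre-mixed 15 min, then 2 uM Z-FR-AMC substrate added; reaction progress from fluorescence change between first and third reads (60 s).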
StopGo reporter – FMDV 2A StopGo reporter, luciferase signal. actives 1.2% (n = 410,000). human cells with a luciferase reporter of 2A StopGo recoding; control for the full effect not named in the record. Potency, µM (highest dose often 57.9 µM), for the others: at the highest dose signal change, negative = less light; active = well fitted falling curve with a large enough effect; inconclusive = small, poorly fitted or top-dose-only effect; inactive = no such curve, though single readings can be large or run the other way; tested in HEK293T cells; note: % is set by controls: 0 for no effect and ±100 for the full control effect; nearly all actives have a fitted effect of over 45% in size; luciferase light after 4 h
SARS PLP yeast – SARS-CoV PLP inhibition in yeast | actives 0.19% (n = 330,000) | Potency, µM (titrated, usually from 32.9 µM), inactives show top-dose activity, positive = growth rescue | AID 485353 | S. cerevisiae expressing SARS-CoV PLpro, growth rescue; control for the full effect not named in the record; active means well fitted rising curve with a large enough effect; inconclusive means small, poorly fitted or top-dose-only effect; inactive means no such curve, though single readings can be large or run the other way; note: 0% is about no effect; nearly all actives have a fitted effect of over 55% in size; growth read by luminescence after 48 h
NS1 function inh – inhibitors of influenza NS1 protein function | S. cerevisiae slowed by influenza A NS1, growth recovery by OD600 | Potency, µM (titrated, usually from 46.1 µM), inactives show top-dose activity, positive = more growth | actives 0.4% (n = 270,000); active means well fitted rising curve with a large enough effect; inconclusive means small, poorly fitted or top-dose-only effect; inactive means no such curve, though single readings can be large or run the other way; note: nearly all actives have a fitted effect of over 50% in size
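Compounds were scored for reversing the slow growth caused by influenza A NS1 in S. cerevisiae, measured by optical density at 600 nm. Assay medium contained 2% galactose at pH 6.0; NS1-free yeast of the same strain were the positive control.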
Numbers without * were called inactive; ? = inconclusive; · = no result given; & = joins results of further samples; [ ] = another dose, or the depositor's remark. Unless noted, calls come from the whole dose curve; as a rule, active = well fitted curve in the direction sought with a large enough effect; inconclusive = small, poorly fitted or top-dose-only effect, or another doubt; inactive = no such curve, though single readings can be large; an effect the other way counts as inactive or inconclusive. Potency is the fitted concentration of half-maximal effect.

smiles	Marburg entry inh	Lassa entry inh	RE007 growth inh	Cruzain inh Det	Cruzain inh noDet	StopGo reporter	SARS PLP yeast	NS1 function inh
CSc1ccccc1C(=O)Nc1ccc2c(c1)OCCO2	13%	8%	?	-0.4%	-2%	12%	·	-10%
CN1CCN(/N=C2/C(=O)Nc3ccc([N+](=O)[O-])cc32)CC1	-7%	6%	4%	·	·	-6%	-1%	·
Cn1cnnc1SCC(=O)NC1CC1	15%	6%	14%	·	·	-22%	1%	·
CN(CC(=O)NCCc1ccc(S(N)(=O)=O)cc1)S(=O)(=O)/C=C/c1ccccc1	4%[46.1 µM]	-13%[46.1 µM]	2%	·	·	0%	-2%	9%
O=[N+]([O-])c1cccc(-c2cc(C(F)(F)F)n3nc(-c4ccccc4)cc3n2)c1	·	·	12%	·	·	20%	0%	-4%
Nc1n[nH]c(N)c1N=Nc1ccc(Cl)cc1	?	13%	·	-14%	-17%	23%	-10%	?
O=C(NC1CCCCC1)[C@@H]1CSC2c3ccccc3C(=O)N21 (some centres not stated)	·	·	-7%	·	·	-18%	-2%	16%
O=C(O)CSc1nccn1-c1cccc(Cl)c1	1%[46.1 µM]	1%	3%	3.3%	-4%	-6%	10%	?
Cn1nc(CC(=O)Nc2ncc(Br)s2)c2ccccc2c1=O	·	?	5%	-1.5%	-10%	?	3%	10%
CCOc1ccccc1-c1noc(CSc2nnc(-c3ccccc3)n2-c2cccc(C)c2)n1	-18%[46.1 µM]	-27%[46.1 µM]	·	-3.4%	-6%	-28%	·	·
CCCN1C2CCCC1CC(NC(=O)c1ccccc1)C2 (configuration not stated)	-10%	-11%	10%	4.6%	-7%	16%	-2%	6%
O=C(N/N=C\C1CC=CCC1)c1ccc(Br)o1 (configuration not stated)	·	·	7%	·	·	5%	-10%	-2%
CCc1cccc(NC(=O)c2ccc3c(c2)N(Cc2cccc(Cl)c2)C(=O)c2ccccc2S3=O)c1 (configuration not stated)	·	-5%[46.1 µM]	·	0.4%	-6%	-16%	·	·
O=[N+]([O-])c1ccccc1C=NN1CCCCCC1	-15%	?	-22%	·	·	71%[activator]	·	·
CN(/N=C/c1ccc(Cl)cc1)c1ncc(Cl)cc1C(F)(F)F	-24%[46.1 µM]	?	6%	·	·	20%	-1%	0%
COc1ccc(Cn2cccc(NC(=O)Nc3ccc(C#N)cc3)c2=O)cc1	1%	-18%	-2%	-3.2%	-3%	?	-6%	7%
Cc1ccc(/C=C/c2nc3ccccc3[nH]2)o1	?	?	-30%	·	·	-49%	-17%	·
CCOc1cc(C2NCc3ccccc3-n3cccc32)ccc1OC (configuration not stated)	·	·	5%	·	·	-27%	1%	1%
COc1ccc(S(=O)(=O)Nc2cccnc2)c(Cl)c1Cl	-18%[46.1 µM]	-10%	25%	·	·	34%[activator]	0%	3%
CC1CC(C)CN(S(=O)(=O)N2CCC(C(=O)NCCc3ccccc3)CC2)C1 (configuration not stated)	·	·	-3%	·	·	-10%	1%	?
Cc1ccc(NC(=O)CS(=O)CC(=O)Nc2ccccc2-c2ccc(C)o2)cc1 (configuration not stated)	?	-13%[46.1 µM]	3%	·	·	-5%	-2%	-17%
COc1cccc(NC(=S)N(CCCN2CCOCC2)Cc2cn(C)c3ccccc23)c1	?	?	-17%	-3.5%	4%	2%	-19%	-1%
Cc1ccc(CN2CCSc3ccc(C(=O)N4CCN(c5cc(C)ccc5C)CC4)cc32)cc1	13%[46.1 µM]	-11%[46.1 µM]	·	1.0%	2%	-9%	·	·
CCOCCCn1c(SCC(=O)Nc2ccc(NC(C)=O)cc2)nc2ccccc2c1=O	·	·	-12%	·	·	-8%	-2%	-3%
CC1C(=O)Nc2ccccc2N1C(=O)c1ccc(O)cc1 (configuration not stated)	·	·	15%	·	·	-20%	1%	-1%
Cc1ccccc1NC(=O)CNc1ccccc1N1CCCCC1	?	-1%	5%	-5.5%	-5%	0%	-5%	-20%
CCOc1ccc(S(=O)(=O)n2ccc(C)n2)cc1	4%[46.1 µM]	-2%[46.1 µM]	-13%	·	·	-5%	-3%	7%
CC(C)c1ccc(NS(=O)(=O)c2ccc3c(c2)oc(=O)n3C)cc1	·	·	-8%	·	·	-12%	-2%	6%
CC(=O)c1c(C)[nH]c(C(=O)CN(C)CC(=O)Nc2ccccc2Cl)c1C	?	?	8%	·	·	?	-6%	·
CCOC(=O)CNc1nc(C(C)(C)C)nc2c1nnn2Cc1ccccc1Cl	?	-1%	-4%	-6.0%	11%	-13%	1%	0%
O[C@@H]1CCCC[C@H]1N1CCC(c2ccccc2)CC1	2%	·	-1%	3.8%	-5%	-25%	-3%&-2%	-5%
Cc1ccc(S(=O)(=O)NCC(=O)N2CCN(c3ccccc3F)CC2)cc1	-7%	?	-6%	0.5%	-7%	-4%	17%	0%
O=C(NCc1ccc(F)cc1)C(c1cccs1)N(C(=O)c1csnn1)C1CC1 (configuration not stated)	-25%	-24%	11%	7.3%	-9%	7%	3%	-2%
CC[C@H](C)[C@H](NC(=O)c1ccccc1)C(=O)NC(CC(=O)O)c1ccc(F)cc1 (some centres not stated)	·	·	1%	·	·	1%	-2%	2%
COc1cccc(OC)c1C(=O)NC(=S)Nc1ccc2c(c1)OCCO2	-22%[46.1 µM]	-24%	18%	·	·	-3%	-2%	-6%
Cc1ccc(NC(=O)CN2C(=O)NC(C)(CCc3ccccc3)C2=O)cc1 (configuration not stated)	4%[46.1 µM]	·	4%	·	·	-15%	9%	·

An excerpt of these results, with values under each structure:
Each structure is followed by: Marburg entry inh, Lassa entry inh, RE007 growth inh, Cruzain inh Det, Cruzain inh noDet, StopGo reporter, SARS PLP yeast, NS1 function inh
> COc1ccc(S(=O)(=O)Nc2cccnc2)c(Cl)c1Cl
→ -18%[46.1 µM], -10%, 25%, ·, ·, 34%[activator], 0%, 3%
> CC1CC(C)CN(S(=O)(=O)N2CCC(C(=O)NCCc3ccccc3)CC2)C1 (configuration not stated)
→ ·, ·, -3%, ·, ·, -10%, 1%, ?

Next section.
smiles	Marburg entry inh	Lassa entry inh	RE007 growth inh	Cruzain inh Det	Cruzain inh noDet	StopGo reporter	SARS PLP yeast	NS1 function inh
O=C(Nc1cccc(-c2ccc(N3CCOCC3)nn2)c1)c1ccccc1Cl	-16%	-29%	1%	·	·	10%	5%	·
O=C(Nc1ccccc1C(=O)N1CCCCC1)NC1CCCCC1	-11%[46.1 µM]	·	-3%	·	·	48%[activator]	1%	-1%
CCCCN(C(C)=O)C1CC(=O)N(c2ccc(OCCC)cc2)C1=O (configuration not stated)	·	·	3%	·	·	-1%	2%	-2%
CC1CN(C(C)C)C(=S)NC1=O (configuration not stated)	4%	0%[46.1 µM]	13%	·	·	-4%	·	·
CCOC(=O)COc1ccc2ccccc2c1/C=C/[N+](=O)[O-]	4.5µM*	?	-1%	-6.2%	-3%	13µM*	-51%	0%
Cc1ccc(C)n1-c1cccc(NC(=O)c2ccccc2)c1	8%	-4%	-7%	-4.5%	-15%	?	-14%	10%
CC(CNC(=O)c1ccc(CSc2nc3ccncc3n2Cc2ccc(F)cc2)cc1)c1ccccc1 (configuration not stated)	-19%[46.1 µM]	·	·	-5.4%	3%	?	·	·
CC1CC(C)CN(C(=O)C2CCC(CNc3c(N4CCCCC4)c(=O)c3=O)CC2)C1 (configuration not stated)	·	·	8%	·	·	-22%	1%	2%
COC(=O)C(C(=O)Nc1ccccc1C)C1CCCC1 (configuration not stated)	-2%	5%	-3%	2.6%	-2%	-8%	6%	-2%
CC(C)(C)OC(=O)[C@H](Cc1ccccc1)NC(=O)c1[nH]cnc1C(=O)N[C@@H](Cc1ccccc1)C(=O)OCc1ccccc1	·	·	15%	·	·	-1%	4%	-13%
O=C(COC(=O)/C=C/c1c(F)cccc1Cl)NCC1CCCO1 (configuration not stated)	-6%	-3%[46.1 µM]	1%	·	·	2%	-2%	·
Cc1ccc(Cn2c(C(=O)O)c(CNC3CCCC3)c3ccc(C)cc32)cc1	·	-1%[46.1 µM]	·	-1.7%	-8%	0%	·	·
CSc1ccccc1C(=O)NC1CCSc2ccccc21 (configuration not stated)	10%[46.1 µM]	23%	4%	·	·	-17%	1%	7%
Cc1ccc(C)c(N2CCN(S(=O)(=O)c3ccc4c(c3)OCCO4)CC2)c1	-15%	?	-7%	-5.0%	-30%	-19%	-9%	-8%
Cc1ccc(CCNC(=O)c2sc3ncccc3c2-n2cccc2)cc1	·	-18%[46.1 µM]	·	-8.3%	3%	-15%	·	·
CC1(C)Cc2c(C#N)c(SCCC#N)nc(N3CCOCC3)c2CO1	0%	-12%	-13%	·	·	-12%	1%	4%
CC(=O)Nc1ccc(-c2nnc(SCC(=O)NCc3ccco3)n2C)cc1	2%	11%	-4%	-0.8%	1%	-9%	7%	7%
CC(C)NC(=O)c1cc(-c2ccco2)on1	?	?	-4%	3.2%	-11%	37%[activator]	-4%	-13%
O=C(NCc1ccc(F)cc1)C(=O)NCC(c1cccs1)S(=O)(=O)c1cccs1 (configuration not stated)	·	-5%[46.1 µM]	·	-2.3%	-6%	?	·	·
Cc1ccc(CNS(=O)(=O)c2ccc3c(c2)C(C)(C)C(=O)N3C)cc1	·	·	15%	·	·	31%[activator]	7%	16%
O=C(COC(=O)c1oc2ccccc2c1COc1ccccc1)NCCN1C(=O)CSC1=O	28%	-12%	0%	-6.5%	?	-16%	-13%	-1%
CC(=NCCCN1CCOCC1)c1c(O)n(-c2ccccc2C)c(=O)[nH]c1=O	-13%	9%	4%	6.5%	0%	?	3%	-4%
CCOC(=O)CN(C(=O)CSc1nnc(CNc2ccc(C)cc2C)o1)c1ccccc1	-5%&-19%	12%	3%	-8.7%	?	-16%	-6%	-6%
